# 4-MU autofl: 4-MU region autofluorescence. compound autofluorescence, 340/450 nm, 4-MU equivalents; hits give high values. max dye-equivalent concentration, M. 59,000 compounds, 11% hits; in the data active = max dye-equivalent concentration above about 10 nM; inconclusive = mostly about 1.1 nM to 9.6 nM
#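 Intrinsic fluorescence at 340/450 nm (ex/em) was read after 15 min at room temperature in pH 8.0, 100 mM Tris. Each compound concentration expressed as 4-MU-equivalent concentration from a six-point 4-MU standard series on each plate.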
# BRCT inh red: disrupts BRCA1 BRCT binding to phosphoprotein, red fluorophore readout; BRCT-phosphopeptide binding, red fluorescence polarization; 75,000 compounds, 0.03% hits; P38398; Potency, µM (titrated, usually from 76.9 µM), without a hit: top-dose activity change, negative = inhibition, usual class: inhibitors; also: % is scaled to controls: 0 for no effect and ±100 for the full control effect
#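 Fluorescence polarization: 100 nM His-tagged BRCA1 BRCT with 100 nM TAMRA-labelled phospho-BACH1 decapeptide, phosphate buffer pH 7.3 with 150 mM NaCl, DTT, 0.01% Tween 20; 12 min RT. Binding inhibition seen as FP decrease.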
# USP2a inh: blocks human ubiquitin-specific protease USP2a; USP2a enzymatic assay, qHTS inhibition; Potency, µM (series often up to 38.3 µM), inactives show top-dose activity change, negative = inhibition, usual class: inhibitors; 60,000 compounds, 0.1% hits;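 also: potency is read from the fitted curve at half-maximal effect; nearly all actives have a fitted effect of over 60% in size; plate controls were DMSO for no effect and NEM full inhibition control for full effect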
#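 Coupled readout: USP2-cleaved Ub-PLA2 (20nM final) turns over NBD C6-HPC (20uM final), Ex 460nm/Em 535nm after 2.5 h, time-zero read flagging artifacts. Enzyme (20nM final, pH 8.0 Tris) given 30 min RT with compound first; NEM defines full inhibition.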
# BRCT inh green: BRCA1 BRCT-phosphoprotein interaction inhibition. P38398. Potency, µM (top dose mostly 76.9 µM), for inactives: at the highest dose activity change, negative = inhibition, most hits filed as inhibitors. BRCA1 BRCT-phosphopeptide binding, green fluorescence polarization. 75,000 compounds, 0.05% hits;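 also: potency is read from the fitted curve at half-maximal effect; plate controls were peptide without protein for full effect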
#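 Compounds were incubated for 12 min at room temperature with a complex of 100 nM fluorescein-tagged pBACH1 decapeptide and 250 nM His-tagged BRCT protein. Buffer was phosphate pH 7.3 with EDTA, DTT and Tween 20. Disruption of binding lowers the polarization signal.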
# Fluorescein fluor: compound autofluorescence in fluorescein spectral region. Compound autofluorescence, 480/540 nm, fluorescein-equivalent; hits give high values. max fluorescein-equivalent concentration, M. 59,000 compounds, 0.91% hits. AID 593; in the data active = max fluorescein-equivalent concentration above about 10 nM; inconclusive = between about 1.1 nM and that limit
#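 Library compounds, added at multiple concentrations to pH 8.0 Tris buffer (100 mM), incubate 15 min at room temperature before CCD imaging at 480 nm excitation and 540 nm emission.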
# Epigenetic mod: epigenetic GFP locus derepression in mouse cells; mouse C127i GFP locus derepression, cytometry, 30 h; 68,000 compounds, 0.09% hits; Potency, µM (doses to about 46.1 µM), without a hit: at the highest dose GFP derepression (activation); also: % of control where 0% means no effect
#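 Murine C127i mammary cells carrying a silenced, stably integrated CMV-driven GFP reporter were treated with compound for 30 hours at 37 C. After PBS washes, GFP-positive cells were counted by laser-scanning microplate cytometry.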
# Casp7 inh: caspase-7 (human) inhibition, allosteric or competitive; P55210; recombinant caspase-7, Ac-DEVD-AFC fluorescence rate; Potency, µM (top dose mostly 57.5 µM), for inactives: at the top dose activity change, negative = inhibition, actives largely listed as inhibitors; 75,000 compounds, 0.02% hits; active = well fitted inhibition curve with a large enough effect in the main read-out, with a control signal flat, not every such curve was filed as active; inconclusive = small, poorly fitted or top-dose-only effect, or a change in a side signal; also: potency is read from the fitted curve at half-maximal effect; % of control where 0% means no effect
# Target sequence (P55210 24-198 limits assumed): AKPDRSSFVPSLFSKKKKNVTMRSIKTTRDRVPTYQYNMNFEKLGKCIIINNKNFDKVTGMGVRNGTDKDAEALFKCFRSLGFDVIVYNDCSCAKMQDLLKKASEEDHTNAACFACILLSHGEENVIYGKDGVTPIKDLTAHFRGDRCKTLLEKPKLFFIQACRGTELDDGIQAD
# Target sequence (P55210 207-303 limits assumed): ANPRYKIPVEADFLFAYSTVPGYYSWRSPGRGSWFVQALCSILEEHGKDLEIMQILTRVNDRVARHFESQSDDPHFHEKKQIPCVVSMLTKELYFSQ
# Caspase-1 inhib: caspase-1 (human) inhibition, allosteric or competitive; 75,000 compounds, 0.03% hits; Caspase-1 enzyme, Ac-WEHD-AFC fluorogenic rate; P29466; Potency, µM (series often up to 57.5 µM), inactives show at the top dose activity change, negative = inhibition, most hits filed as inhibitors;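 also: potency is read from the fitted curve at half-maximal effect; plate controls were vehicle for no effect and no substrate for full effect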
# Target sequence (P29466 120-297 limits assumed): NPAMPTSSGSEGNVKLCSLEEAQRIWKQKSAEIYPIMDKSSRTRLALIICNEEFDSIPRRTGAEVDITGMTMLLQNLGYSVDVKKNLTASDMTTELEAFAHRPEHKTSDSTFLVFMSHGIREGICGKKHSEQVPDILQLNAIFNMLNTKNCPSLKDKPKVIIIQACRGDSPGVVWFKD
# Target sequence (P29466 317-404 limits assumed): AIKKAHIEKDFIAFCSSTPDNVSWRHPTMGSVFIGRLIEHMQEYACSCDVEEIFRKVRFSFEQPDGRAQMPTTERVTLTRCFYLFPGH
# A350 autofl: compounds fluorescent in Alexa 350 spectral region; Compound autofluorescence, 340/450 nm, Alexa 350 dye-equivalents; hits give high values; 59,000 compounds, 11% hits; max dye-equivalent concentration, M; in the data active = max dye-equivalent concentration above about 10 nM; inconclusive = mostly about 1.1 nM to 9.6 nM
# Ub-GFP proteasome: inhibits proteasome, raising ubiquitin-GFP reporter fluorescence; Ubiquitin-GFP reporter cells, proteasome inhibition, GFP fluorescence; response scale: untreated = 0%, 10 µM MG-132 = 100%; Potency, µM (top dose mostly 45.9 µM), for inactives: at the highest dose activation (GFP accumulation), most hits filed as activators; 67,000 tested, under 10 active; active = well fitted activation curve with a large enough effect, not every such curve was filed as active; inconclusive = small, poorly fitted or top-dose-only effect, or another doubt; inactive = no such curve, though single readings can be large or run the other way; also: potency is read from the fitted curve at half-maximal effect
#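 U2OS Ub(G76V)-GFP reporter; O/N plating, 0.5% FBS; cpd 46 uM–2.9 nM, 4 h, 37 °C; GFP+ cell count, 488/515 nm; norm. to basal vs 10 uM MG-132; CRC fit.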
# An asterisk follows results filed as active; i = inactive; ? = inconclusive; · = no result given; [ ] = another dose, or the depositor's remark. Unless noted, calls follow the shape of the dose curve; as a rule, active = well fitted curve in the direction sought with a large enough effect; inconclusive = small, poorly fitted or top-dose-only effect, or another doubt; inactive = no such curve, though single readings can be large; an effect the other way counts as inactive or inconclusive.
# The line under a structure holds: 4-MU autofl | BRCT inh red | USP2a inh | BRCT inh green | Fluorescein fluor | Epigenetic mod | Casp7 inh | Caspase-1 inhib | A350 autofl | Ub-GFP proteasome
> OC(CCN1CCCCC1)(c1ccccc1)c1ccccc1
    i | -0.6%[15.4 µM] | 0% | -1.6%[15.4 µM] | ? | 4%[20.6 µM] | 1%[11.5 µM] | 0%[11.5 µM] | ? | -1%[9.17 µM]
> C[N+]1(C)CCC[C@@H](OC(=O)C(O)(c2ccccc2)c2ccccc2)C1
    i | -0.2%[34.4 µM] | -8%[17.1 µM] | 0.2%[34.4 µM] | i | 6%[20.6 µM] | 2%[25.7 µM] | -1%[25.7 µM] | i | -4%[20.5 µM]
> CCOc1ccccc1N(C(=O)c1snc(C(N)=O)c1N)C(C(=O)NCCC(C)C)c1ccco1 (stereo not drawn)
    2e-07M* | -1.6% | · | 14% | ? | -1% | -27% | ? | 1.7e-07M* | -4%
> CC1(C(=O)NC2CCCCCC2)CCC(=O)N1Cc1ccc2c(c1)OCO2 (stereo not drawn)
    i | -3.2% | 6% | 1.4% | ? | 2% | -1% | -1% | i | 4%
> Cc1cccc2cc(CN(Cc3ccco3)C(=O)c3ccncc3)c(=O)[nH]c12
    i | -2.2% | 8% | 1.3% | i | 0% | -1% | -2% | ? | -2%
> CCCC(O)C(CC)CO (stereo not drawn)
    · | 1.1% | · | -1.5% | · | · | -1% | 0% | · | ·
> O=C(CCCn1ncn2c(cc3occc32)c1=O)N1CCc2ccccc2C1
    · | -1.3% | · | -0.3% | · | · | -3% | -5% | · | ·
> C[C@@H](C[N+](C)(C)C)OC(N)=O
    i | 0.0%[34.4 µM] | -7%[17.1 µM] | -1.2%[34.4 µM] | ? | 2%[20.6 µM] | 1%[25.7 µM] | -1%[25.7 µM] | i | 6%[20.5 µM]
> O=C(Cn1c(NCCCO)nc2ccccc21)c1ccc(Br)cc1
    i | -2.0% | 2% | -4.7% | i | 11% | -2% | 0% | i | -3%
> CCCS(=O)(=O)N1CCC(C(=O)NCCCN(CC)c2cccc(C)c2)CC1
    i | -0.1% | 5% | -1.1% | i | 1% | 2% | 2% | i | -9%
> Cc1noc(C)c1CSCC(=O)NC1=NCCS1
    i | 0.5% | 0% | -1.4% | ? | 0% | 0% | 1% | ? | 4%

# Some entries already given with just Fluorescein fluor and Casp7 inh.
Compound | Fluorescein fluor | Casp7 inh
CC1(C(=O)NC2CCCCCC2)CCC(=O)N1Cc1ccc2c(c1)OCO2 (stereo not drawn) | ? | -1%
Cc1cccc2cc(CN(Cc3ccco3)C(=O)c3ccncc3)c(=O)[nH]c12 | i | -1%

# Another view of some results above.
Molecule | 4-MU autofl | BRCT inh red | USP2a inh | BRCT inh green | Fluorescein fluor | Epigenetic mod | Casp7 inh | Caspase-1 inhib | A350 autofl | Ub-GFP proteasome
C[N+]1(C)CCC[C@@H](OC(=O)C(O)(c2ccccc2)c2ccccc2)C1 | i | -0.2%[34.4 µM] | -8%[17.1 µM] | 0.2%[34.4 µM] | i | 6%[20.6 µM] | 2%[25.7 µM] | -1%[25.7 µM] | i | -4%[20.5 µM]
CCOc1ccccc1N(C(=O)c1snc(C(N)=O)c1N)C(C(=O)NCCC(C)C)c1ccco1 (stereo not drawn) | 2e-07M* | -1.6% | · | 14% | ? | -1% | -27% | ? | 1.7e-07M* | -4%
CC1(C(=O)NC2CCCCCC2)CCC(=O)N1Cc1ccc2c(c1)OCO2 (stereo not drawn) | i | -3.2% | 6% | 1.4% | ? | 2% | -1% | -1% | i | 4%
Cc1cccc2cc(CN(Cc3ccco3)C(=O)c3ccncc3)c(=O)[nH]c12 | i | -2.2% | 8% | 1.3% | i | 0% | -1% | -2% | ? | -2%
CCCC(O)C(CC)CO (stereo not drawn) | · | 1.1% | · | -1.5% | · | · | -1% | 0% | · | ·
O=C(CCCn1ncn2c(cc3occc32)c1=O)N1CCc2ccccc2C1 | · | -1.3% | · | -0.3% | · | · | -3% | -5% | · | ·
C[C@@H](C[N+](C)(C)C)OC(N)=O | i | 0.0%[34.4 µM] | -7%[17.1 µM] | -1.2%[34.4 µM] | ? | 2%[20.6 µM] | 1%[25.7 µM] | -1%[25.7 µM] | i | 6%[20.5 µM]
O=C(Cn1c(NCCCO)nc2ccccc21)c1ccc(Br)cc1 | i | -2.0% | 2% | -4.7% | i | 11% | -2% | 0% | i | -3%

# Screens: PubChem BioAssay, National Center for Advancing Translational Sciences (NCATS)

# The list is partial; the hit share may differ from the screen's.
